# High-throughput results from PubChem.
# fixLJ activator: B. multivorans fixK reporter activation | z-score (no concentration beside the values) | B. multivorans fixK-promoter GFP reporter, 18 h; hits give high values | AID 1918990 | 29,000 compounds, 0.3% hits;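 active = replicate mean overnight rise in green fluorescent reporter signal, 3 or more SD over negative controls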;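 also: score is relative to vehicle wells of the plate; 300 nL library stock went into each well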
# An asterisk follows results filed as active; & = joins results of further samples.
molecule	fixLJ activator
CCc1ccc(NC(=O)Cn2c(=O)n(CCCCC(=O)NCCc3ccccc3)c(=O)c3ccccc32)cc1	-0.04
Cc1nn(C)cc1NC(=O)CN1CCCC(c2nc3c(C)cccc3[nH]2)C1 (stereo not given)	-1.56
CCOc1ccc(CCNC(=O)c2nn(-c3ccc(OC)cc3)c(=O)c3c2c2ccccc2n3C)cc1OCC	-0.6
CCc1cc2c(cc3c(=O)n(CC(=O)NCCc4ccccc4)ncn32)s1	-2.06
COc1cc(NC(=O)CCN2CCN(CCO)CC2)cc(OC)c1	0.74
O=C(NCCCc1nc2ccccc2n1Cc1ccc(F)cc1)C1CCCCC1	-2.43
Cc1ccc(SCCNC(=O)CN(c2ccccc2)S(=O)(=O)N(C)C)cc1	-0.87
COC(=O)c1cc2oc3ccccc3c2n1Cc1nc(-c2ccccc2C)oc1C	-0.41
CCOCCCn1c(=N)c(C(=O)NC(C)c2ccccc2)cc2c(=O)n3cccc(C)c3nc21 (stereo not given)	-2.52
CCCCOC(=O)c1ccc(NC(=O)/C(C#N)=C/c2ccc(-c3ccccc3)o2)cc1	-9.95
Cc1noc(C(C)NC(=O)N2CCCN(C)C3(CCN(C)CC3)C2)n1 (stereo not given)	-0.79
NCCCNCCSP(=O)(O)O	-0.83
CCOC(=O)c1ccccc1NC(=O)CN(c1cccc(C)c1C)S(=O)(=O)c1ccccc1	1.54
Cn1cc(CNS(=O)(=O)Cc2ccc(Cl)cc2F)cn1	-1.11
Cc1ccc2nc(NCCc3ccc(Cl)cc3)c3nncn3c2c1	-0.53

# Next section.
molecule	fixLJ activator
Cc1ccc(C)c(CSc2cn(CCNC(=O)c3cccs3)c3ccccc23)c1	1.87
CCOc1ccc(Nc2nc(C)c(NC(=O)c3cccc(OC)c3)c(Nc3ccc(OCC)cc3)n2)cc1	1.43
Cc1nc2ccc(C(=O)N3CCCC4(CCc5cn[nH]c54)C3)cc2[nH]1 (stereo not given)	-0.79
CCn1c(=N)c(C(=O)NCc2ccccc2)cc2c(=O)n3cccc(C)c3nc21	-0.66
CCOc1nc(NC(=O)NS(=O)(=O)Oc2cccc(F)c2)nc(-c2ccccc2)n1	-3.25
CCS(=O)(=O)c1ncc(Cl)c(C(=O)N2CCN(c3ccc(OC)cc3)CC2)n1	-0.93
Cc1ccc(OCC(=O)N(c2ccc(C)cc2)S(=O)(=O)c2ccc(Cl)cc2)cc1	0.82
COc1ccc(CCNC(=O)C2CCN(Cc3nc(-c4ccc(OC)c(OC)c4)oc3C)CC2)cc1OC	-1.31
COc1cc2c(=O)c(C(=O)c3ccc(C)c(C)c3)cn(Cc3ccc(F)cc3)c2cc1OC	0.47
COc1ccc(CCNC(=O)CSc2cn(CCNC(=O)c3ccc(OC)c(OC)c3)c3ccccc23)cc1OC	0.04
Cc1c(Cl)cccc1NC(=O)Cn1nnc2sc3c(c2c1=O)CCCC3	-1.65
O=C(NCCSc1c(-c2ccc(Br)cc2)[nH]c2ccccc12)c1ccc(S(=O)(=O)N2CCOCC2)cc1	-0.05
CC(C)COc1ccc(C(=O)Nc2onc3c2CCCC3)cc1	1.64
COC(=O)CS(=O)(=O)c1nc2ccccc2nc1N1CCCCC1	-2.25
Clc1ccccc1N1CCN(Cc2nnc(-c3ccccc3)o2)CC1	-0.02

# Overlap with the part before: five entries, then new ones.
molecule	fixLJ activator
Cc1c(Cl)cccc1NC(=O)Cn1nnc2sc3c(c2c1=O)CCCC3	-1.65
O=C(NCCSc1c(-c2ccc(Br)cc2)[nH]c2ccccc12)c1ccc(S(=O)(=O)N2CCOCC2)cc1	-0.05
CC(C)COc1ccc(C(=O)Nc2onc3c2CCCC3)cc1	1.64
COC(=O)CS(=O)(=O)c1nc2ccccc2nc1N1CCCCC1	-2.25
Clc1ccccc1N1CCN(Cc2nnc(-c3ccccc3)o2)CC1	-0.02
Cc1ccccc1C(=O)Nc1sc2c(c1C(=O)N1CCCCC1)CCC(C(C)(C)C)C2 (stereo not given)	0.29
COc1ccc(OC)c(NC(=O)c2sc3nc4c(cc3c2N)CCCCCC4)c1	-1.26
CCN(CC)CCNC(=O)CN1C(=O)COc2ccc(S(=O)(=O)N3CCOCC3)cc21	0.39
CCc1ccc(S(=O)(=O)c2nnn3c2nc(N2CCCC(C)C2)c2cc(Cl)ccc23)cc1 (stereo not given)	0.01
CCOC(=O)c1ccc(NC2=CC(c3ccc(O)c(OCC)c3)N(c3ccc(C(=O)OCC)cc3)C2=O)cc1 (stereo not given)	-1.42
CC(C)(C(=O)O)c1ccc(C(O)CCCN2CCC(C(O)(c3ccccc3)c3ccccc3)CC2)cc1 (stereo not given)	-0.61
COc1ccc(NC(=O)c2c(NC(=O)c3cccc(C)c3)sc3c2CCCC3)cc1	0.04
Cc1cc(NS(=O)(=O)c2ccc(NC(=O)c3ccccc3F)cc2)nc(C)n1	-1.97
CCn1cc(C2N3CC4(CC)CN2CC(CC)(C3)C4=O)c2ccccc21 (stereo not given)	-2.11
COCCNC(=O)CCCn1c(=O)[nH]c2ccsc2c1=O	-0.15
CC(=O)N1CCc2c(sc3c2c(=O)n(-c2ccccc2)c(=O)n3CC(=O)Nc2ccccc2C)C1	-1.18
CCOc1ccc(C(=O)N2CCC(c3nc(-c4ccc(S(=O)(=O)N5CCCC5)cc4)no3)CC2)cc1	-0.14
O=C(Nc1cccc(F)c1)c1ccc(-c2ccccc2)s1	-1.94
COc1ccccc1CCNC(=O)CCc1c(C)c2cc3c(C)c(C)oc3cc2oc1=O	0.85
CC(=O)OC1CCC2C3CCc4cc(O)ccc4C3CCC12C (stereo not given)	0.85

# The list goes on.
molecule	fixLJ activator
O=C(CCn1cnc2ccccc21)NCC1CCN(Cc2ccccc2F)C1 (stereo not given)	-0.6
Cc1ccc(CNC(=O)c2cc3c(s2)-c2c(C)cccc2OC3)cc1	-0.44
COc1ccc2c(c1)sc1ncc(C(=O)NCc3ccc(OC(C)C)cc3)c(=O)n12	-1.55
Cc1ccc2c(c1)c(=O)c1ccccc1n2CCCC(=O)Nc1ccc(C)c(F)c1	0.93
CCC(C)NC(=O)C1CCN(C(=O)c2cc3sccc3n2Cc2ccc(Cl)cc2)CC1 (stereo not given)	-1.28
Cc1nc2cc(CNC(=O)C3CCCN(C(C)C)C3)ccc2n1C (stereo not given)	-0.1
CC(C)c1ccc(NC(=O)C2CCCN(S(=O)(=O)c3cccc4nsnc34)C2)cc1 (stereo not given)	-0.93
COc1ccccc1Oc1ccc(NC(=O)c2ccc3c(c2)OCC(=O)N3)cn1	-0.51
CCOC(=O)c1c(NC(=O)/C=C/c2ccc(Cl)cc2)sc2c1CCC(C)C2 (stereo not given)	-1.54
COc1cc(C(=O)Nc2cc(C)c(O)c(-c3nc4cc(Cl)ccc4o3)c2)cc(OC)c1OC	-2.97
CCN1CCN(c2c(S(=O)(=O)c3ccc(C)c(C)c3)cnc3ccc(F)cc23)CC1	-0.29
Cn1ncc2c(NCc3cccc(Cl)c3)nc(-c3ccncc3)nc21	0.34
CCCCCCNc1ncnc2c1sc1nc(N3CCOCC3)c3c(c12)CCCC3	0.05
COc1ccc(NC(=O)c2c(NC(=O)C(F)(F)F)sc3c2CCCCC3)cc1	-5.9
O=C(CCC(=O)c1ccc(F)cc1)NCCc1nc2c(s1)CCC2	-0.54

# Look-ups from above:
# CCCCOC(=O)c1ccc(NC(=O)/C(C#N)=C/c2ccc(-c3ccccc3)o2)cc1 in fixLJ activator is entered as -9.95
# COc1cc2c(=O)c(C(=O)c3ccc(C)c(C)c3)cn(Cc3ccc(F)cc3)c2cc1OC in fixLJ activator is entered as 0.47

# (further entries)
molecule	fixLJ activator
COc1ccc2c(c1)CCc1c(C(=O)Nc3c(C)nn(Cc4ccccc4C)c3C)noc1-2	0.1
COc1cccc(-n2c(=O)c3sc4ccccc4c3n(CC(=O)Nc3ccccc3OC)c2=O)c1	0.04
CC(=O)c1ccc(NC(=O)Cn2c3ncccc3c(=O)n2-c2ccc(C)cc2)cc1	0.8
Cc1cc(C)cc(NC(=O)CSc2oc(-c3ccco3)nc2S(=O)(=O)c2ccc(Cl)cc2)c1	-2.37
Cc1cc(C)cc(NS(=O)(=O)c2ccc3[nH]cc(C(=O)N4CCCCC4)c(=O)c3c2)c1	-1.09
COc1ccc(N2CCN(S(=O)(=O)c3ccsc3)C(C)C2=O)cc1 (stereo not given)	0.26
Cc1ccc2c(c1)cc1c(=O)n(Cc3ccc(Cl)cc3)nc(C)n12	-2.26
O=C(CCn1ccnc1)NC1CCCN(C2CCCCC2)C1 (stereo not given)	0.55
CCOC(=O)c1cc(-c2ccc(C)cc2)n(CC(=O)NC2CCCCCC2)c1C	-1.87
COC1CCC[C@]12CCCN(S(=O)(=O)c1ccc(O)c(C(=O)O)c1)C2 (stereo not given in full)	0.7
Cc1cc(C)n2nc(CNS(=O)(=O)c3ccc(F)cc3)nc2n1	-0.7
COc1ccc2c3c1O[C@H]1C[C@@H](O)C=C[C@@]31CCN(C)C2	-1.23&0.69
COc1cc(OC)c(Nc2ncnc3onc(-c4cccc(Cl)c4)c23)cc1Cl	0.5
CC(=O)N1CC2CCC(C1)N(C(=O)c1ccc3nc(C(F)(F)F)[nH]c3c1)C2 (stereo not given)	0.25
CNC(=O)CCC(=O)N1CCc2c(nc(-c3ccccc3)nc2N(C)C)C1	0.1

# Continuation.
molecule	fixLJ activator
CCN(CC)S(=O)(=O)c1ccc2c(c1)c(=O)c(C(=O)N1CCN(c3ccccc3OC)CC1)cn2C	-1.51
Cc1ccc(NC(=O)c2oc3ccccc3c2NC(=O)C2CCCCC2)cc1	0.79
CCS(=O)(=O)NC1COCC1Cc1ccnc2ccccc12 (stereo not given)	-0.43
CN1CCc2[nH]cnc2C12CCN(C(=O)c1cc(Cl)ccc1F)CC2	0.63
COc1ccc(-n2nc(C(=O)N3CCN(c4cccc(C)c4)C(C)C3)c3c4ccccc4n(C)c3c2=O)cc1Cl (stereo not given)	-1.66
CS(=O)(=O)c1ncc(Cl)c(C(=O)Nc2c(C(=O)c3ccc(Cl)cc3)oc3ccccc23)n1	1.33
CC(C)Cc1cc(C(=O)NCCSc2nncn2C)nc(=O)[nH]1	-0.15
Cc1nc(N2CCN(C)CC2)ncc1C(=O)N1CC=CC1C(=O)O (stereo not given)	-1.88
Cc1ccc(Cl)cc1-n1c(=O)c2sc3ccccc3c2n(CC(=O)NC2CCCC2)c1=O	-1.03
CC(=O)N1CCCCC1C(=O)Nc1cccc(-n2cccn2)c1 (stereo not given)	-4.62
COC(=O)c1c(NC(=O)COc2c(C)cccc2C)sc2c1CCCC2	0.84
CCOc1ccc(C(=O)Nc2cccc(-c3nc4cc(Cl)cc(Cl)c4o3)c2)cc1	-0.38
COc1ccc(Cl)cc1NS(=O)(=O)c1ccc2c(c1)NC(=O)CC(=O)N2	-0.45
COC(=O)c1ccccc1NC(=O)CSc1n[nH]c(CC(C)C)n1	-1.04
COCc1cc(CNC(=O)C(c2ccccc2)C2CCCC2)[nH]n1 (stereo not given)	0.84

# Continued:
molecule	fixLJ activator
CCOc1ccc(NC(=O)Cn2c(=O)n(CC(=O)NCc3ccccc3Cl)c(=O)c3sccc32)cc1	-1.74
Cc1cccc(N2CCN(C(=O)CN3C(=O)COc4ccc(S(=O)(=O)N5CCC(C)CC5)cc43)CC2C)c1 (stereo not given)	-1.29
COc1ccc(N2Cc3cccc(C(=O)Nc4cc(C)cc(C)c4)c3C2=O)cc1	-0.81
COCCNC(=O)c1ccc2c(c1)N(C)C(CC(=O)Nc1ccc(N)nc1)CO2 (stereo not given)	1.04
COc1ccc(/C=C\c2onc(C)c2S(=O)(=O)N2CCC(C(=O)Nc3cccc(C)c3C)CC2)cc1	-0.56
COc1cc2c(cc1OC)C(COc1ccc3c(C)cc(=O)oc3c1)N(C(=O)c1cc(Cl)ccc1OC)CC2 (stereo not given)	0.63
Cc1ccc(S(=O)(=O)c2nnn3c2nc(N(C)Cc2ccccc2)c2cc(Cl)ccc23)cc1C	1.09
Cc1nc2scc(C)n2c(=O)c1S(=O)(=O)Nc1ccc(N2CCOCC2)cc1	-0.53
CC1CCN(c2nc3ccc(C(=O)NCc4ccccc4)cc3s2)CC1	-0.89
COc1ccc(Cl)cc1NC(=O)CSC1=Nc2ccccc2C2=NC(CCC(=O)NCc3ccc(F)cc3)C(=O)N12 (stereo not given)	-0.68
Cc1ccc(S(=O)(=O)c2nnn(CC(=O)Nc3ccccc3C)c2N)cc1C	-0.36
O=C(CN1C(=O)c2cccc3cccc1c23)Nc1ccccc1Br	-0.75
CCc1noc(-c2cccc(NC(=O)N(C)CCCc3nccn3C)c2)n1	0.1
O=C(c1coc(COc2ccc3ncccc3c2)n1)N1CC(N2CCCCC2)C1	-0.32
CCOCCCNC(=O)c1c(NC(=O)Cc2coc3ccc(C)cc23)sc2c1CCC2	0.84

# The list goes on.
molecule	fixLJ activator
COc1ccc2c(c1)c(=O)c(C(=O)c1ccc(Cl)cc1)cn2CC(=O)Nc1ccc2c(c1)OCO2	-1.49
CC(=O)Nc1ccc(S(=O)(=O)NC2=NCN(C(C)C)CN2)cc1	0.29
Cc1ccc(OCc2cc(=O)n3cc(C)sc3n2)c(C)c1	-1.94
CC(=O)c1ccc(NC(=O)c2noc3c2CCc2ccccc2-3)cc1	0.43
CCOc1ccccc1C(=O)Nc1cc2c(cc1N1CCCCC1)n(C)c(=O)n2C	-1.21
CC[C@@H]1OC(=O)C[C@H](O)[C@@H](C)[C@@H](O[C@@H]2O[C@H](C)[C@@H](O[C@H]3C[C@@](C)(O)[C@@H](O)[C@H](C)O3)[C@H](N(C)C)[C@H]2O)[C@@H](C=O)C[C@@H](C)C(=O)/C=C/C(C)=C\[C@@H]1CO[C@H]1O[C@@H](C)[C@H](O)[C@H](OC)[C@@H]1OC	-2.11
CCC(C)(CC)NC(=O)C1OCC(=O)N(C2CC2)C1c1cccnc1 (stereo not given)	1.01

# These rows are one share of the data; rates above refer to the full screens.
